BJeLR lethal – kills HRASV12-expressing BJeLR cells. 0.17% of 300,000 active. BJeLR (HRASV12) viability, CellTiter-Glo ATP luminescence, 48 h; reference of the scale not given here. inhibition, % (concentration not given with the values);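 active means replicate mean above 50%; inconclusive means above 50% but judged a plate artefact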;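 further: 50 nL library stock added to about 25 µL; numbers are from one replicate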
Autofluor counter – counter-screen for toxin protease inhibitors: compound fluorescence | compound autofluorescence counterscreen, microsphere flow cytometry; hits give high values | fluorescence intensity (concentration not given with the values) | 3.1% of 360,000 active;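 active means at least 3 SD above the mean of all compounds, about 16000 in these data; inconclusive means too few beads counted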;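 further: 100 nL of 1 mM stock went into each well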
Mtb hypoxia inh – inhibitors of hypoxia-regulated fluorescent reporter in Mycobacterium tuberculosis | fluorescence inhibition, % (concentration not given with the values) | M. tuberculosis hypoxia-regulated fluorescent reporter, fluorescence | 0.1% of 300,000 active;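 active means 35 to 45% if threefold the growth effect, above 45% if 1.5-fold the growth effect; inactive means the rest, general growth blockers included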;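 further: wells of about 50 µL received 100 nL stock; 0% = vehicle wells and 100% = reference inhibitor wells; whole bacteria with a GFP reporter of the hypoxia response; strong numbers were not always called active; many hits fall short of the cut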
PrP 5UTR inh – suppresses PrP 5' UTR mRNA reporter expression; 0.35% of 340,000 active; cell-based PrP 5' UTR mRNA reporter, plate reader; AID 488862; inhibition, % (concentration not given with the values);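 active means every replicate at 50% or more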;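 further: 0 = median of the neutral control wells; tested in H4 reporter cells; numbers are from one replicate; inactives centre near -14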
Sa ugtP lethal – growth inhibition of S. aureus ugtP deletion strain | S. aureus RN4220 ugtP deletion, OD600 growth, 16 h; some inactives read as strong as hits | growth inhibition, % (concentration not given with the values) | 0.54% of 330,000 active;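 active means z-score under -3 and OD600 up to 0.15 on both plates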;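 further: plate controls were untreated wells for no effect and antibiotic for full effect; wells of about 80 µL received 100 nL stock; the first replicate is given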
Sa RN4220 lethal – S. aureus RN4220 growth inhibition; OD600, 16 h; inhibition, % (concentration not given with the values); 0.33% of 330,000 active; AID 1259311;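 active means z-score of -3 or lower and OD600 up to 0.18 on both plates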;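 further: plate controls were untreated cells for no effect and reference antibiotic for full effect; stock transfer was 100 nL into about 80 µL; one replicate is shown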
Mtb hypoxia inh growth – second read-out of Mtb hypoxia inh, no call of its own (marks repeat the call); growth inhibition, %; measured here: M. tuberculosis growth (absorbance);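 0% = vehicle and 100% = reference antibiotic; read after six days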
Numbers without * were called inactive; ? = inconclusive; · = not tested or not shown. Hits appear at their usual frequency. About 4% of those tested had a hit in this group.

structure,BJeLR lethal,Autofluor counter,Mtb hypoxia inh,Mtb hypoxia inh growth,PrP 5UTR inh,Sa ugtP lethal,Sa RN4220 lethal
Cn1cc(/C=C/C(=O)N2CCCC(C(=O)c3cccc(C(F)(F)F)c3)C2)cn1 (stereo unspecified),-1,4160,4,-1,-25,13,7.0
O=C(NCc1ccco1)C1CCN(S(=O)(=O)c2cccc3cccnc23)CC1,1,3881,·,·,2,4,-3.8
O=C(CN(C(=O)CNC(=O)c1ccco1)c1ccccc1F)NC1CCCCC1,-4,4627,5,-3,2,5,3.0
CN(C)Cc1c(C(=O)NN=Cc2ccc(-c3ccccc3)cc2)nnn1-c1nonc1N,·,·,7,8,·,9,7.0
CCNS(=O)(=O)c1cc(OC)c(Cl)cc1OC,-4,2287,·,·,-16,-1,2.7
Cc1nn(C)c(Cl)c1CN1CCC(n2nccc2NC(=O)C2CCCC2)CC1,-5,6232,-4,-1,-9,4,2.0
CN(Cc1cccs1)C(=O)CSc1nc2ccccc2[nH]1,0,4503,9,6,-37,3,4.4
O=C(Nc1ccc2c(c1)OCO2)C1CCCN1C(=O)OCc1ccccc1 (stereo unspecified),-3,3691,·,·,-14,4,3.4
O=C(CN1C(=O)c2ccccc2C1=O)N1CCOCC1,-2,4955,·,·,-11,-1,-2.3
COc1ccc(CN2CCN(CCCCOc3ccc(Cl)cc3)CC2)c(OC)c1OC,-3,2447,10,18,-15,-4,7.5
CCc1c(C)c2ccc(O)c(CN3CCCC3)c2oc1=O,2,3159,1,-2,-16,4,1.6
COCC(=O)N[C@@H]1c2ccccc2CC[C@@H]1OCc1ccccc1,·,3441,2,6,3,6,2.4
Cc1cc2n(n1)C(c1c[nH]c3ccccc13)Nc1ccccc1-2 (stereo unspecified),2,7053,-2,6,-10,99*,99*
COc1ccc2nc(/C=N/NC(=O)CCNC(=O)OC(C)(C)C)ccc2c1,-2,?,·,·,-20,·,·
O=[N+]([O-])c1ccc(N2CCOCC2)cc1,·,3415,12,8,-23,4,9.7
Cc1ccc(N2CC(C(=O)N3CCC(c4nc5ccccc5[nH]4)CC3)CC2=O)cc1C (stereo unspecified),3,?,12,1,-6,5,1.5
Nc1c(C(=O)O)cnc2c(-c3ccc(Cl)cc3)cnn12,1,4159,1,7,-49,2,4.5
COC(=O)C1=C(CSc2nc3c(cc2C#N)CN(C)CC3)OC(N)=C(C#N)C1c1ccc(F)cc1 (stereo unspecified),-1,?,9,5,-43,-6,2.8
COc1ccc(NC(=O)[C@@H]2[C@@H]3C(=O)N(C4CCCCC4)C(=O)[C@@H]3C3c4ccccc4C=CN32)cc1 (stereo partly specified),4,2720,·,·,-11,-4,0.3
Cc1ccc([N+](=O)[O-])c(C(=O)NN=Cc2cccnc2)c1,·,·,6,8,·,2,1.3
COc1ccc2[nH]c(=O)c(CN(CCc3cccc(C)c3)C(C)=O)cc2c1,-7,9537,13,3,-36,2,4.4
CC(NC1=NCCS1)c1ccccc1 (stereo unspecified),-16,4231,-6,-2,-22,11,1.6
Cc1ccc2[nH]c(O)c(N=NC(N)=S)c2c1,5,4493,4,5,-38,1,5.2
O=C(CNC(=O)c1cc(=O)[nH]c2ccccc12)Nc1ccc(F)c(F)c1,12,3283,19,0,-12,5,2.4
Cc1ccc(/C=[N+](\[O-])c2ccc(N(C)C)cc2)c2nsnc12,2,6221,0,3,-54,10,6.4
N#CC1(Cc2ccccc2)c2ccccc2C=CN1C(=O)c1ccccc1 (stereo unspecified),0,3316,-4,0,-12,10,3.9
COc1cccc2c1cc1c(=O)n(CC(=O)N3CCC(C)CC3)nc(C)n12,-13,5055,-4,5,-33,-7,-3.3
O=C1CC(N2CCCCC2)C(=O)N1c1ccccc1 (stereo unspecified),-1,4689,·,·,-16,-3,-0.1
CSc1ccccc1NC(=O)Nc1cccc(Cl)c1Cl,5,20444*,-1,5,-11,-6,-3.0
Cc1cc(=O)oc2cc(OCC(=O)N3CCOCC3)ccc12,-3,4896,1,0,-5,3,4.0
CCOCC(=O)Nc1nc2ccc(OCC)cc2s1,1,3790,12,14,-76,11,4.5
O=C(NCCOc1ccc(F)cc1)C1CCC(=O)N(CCN2CCOCC2)C1 (stereo unspecified),-9,5752,5,4,-10,-1,2.1
Cn1c(NC(=O)C(C)(C)Oc2ccc(Cl)cc2)cc(=O)n(C)c1=O,5,5091,11,12,-18,8,6.3
CCOC(=O)N1CCN(c2cc(=O)n(Cc3ccc(F)cc3)c(=O)[nH]2)CC1,5,5983,6,4,-1,12,4.5
c1ccc(CCn2c(SCc3ccccc3)nnc2-c2ccncc2)cc1,6,2144,13,9,-7,4,0.9
COc1cccc(NC(=S)N2CCN(C(c3ccccc3)c3ccccc3)CC2)c1,-20,2014,0,1,10,8,-0.8
CCN(CC)S(=O)(=O)c1ccc(NC(=O)c2cc(=O)[nH]c3ccccc23)cc1,-9,4178,7,2,-9,4,10.0
CCN1CCN(c2ccc(NC(=O)c3cccc4ncccc34)cc2)CC1,-17,22120*,7,7,-17,1,3.6
COc1ccc(NC(=O)c2ccc3ccccc3n2)cc1S(=O)(=O)N1CCCCC1,-1,3461,-2,7,-47,-9,9.4
COc1ccc2[nH]c(=O)c(CN(C(=O)NC3CCCCC3)C3CCCC3)cc2c1,-5,8559,-12,-8,-1,-11,-0.7
CCCNC(=O)C1CN(C(=O)c2nn(Cc3ccccc3)c(=O)c3ccccc23)c2ccccc2O1 (stereo unspecified),·,3027,-8,-4,-6,1,1.8
Cc1cccc(C)c1NC(=O)C(NC=O)c1ccccc1 (stereo unspecified),-11,4214,·,·,-23,-5,-8.5
CC(C)(ONC(=O)Nc1ccccc1Cl)C(=O)O,2,6341,9,4,-5,7,4.7
COc1ccc([N+](=O)[O-])cc1NC(=S)NC(NC(C)=O)C(Cl)(Cl)Cl (stereo unspecified),8,4557,6,-1,-10,10,-1.5
O=S(=O)(CCN1CCSCC1)c1ccc(Cl)cc1,-3,3413,8,3,-9,9,2.3
O=C(O)c1cc2c(cc1Cl)N1CCCCCC1=NS2(=O)=O,-11,6203,-4,-11,-24,6,4.7
O=C(NC1CCCC1)c1n[nH]c2ccccc12,0,4279,-1,17,-69,-3,2.9
COc1ccc(OCc2nnc(SCC(=O)c3ccccc3)o2)cc1,·,2107,-5,2,-23,-19,0.3
CC(C)(C)NC(=O)c1cccc(NC(=O)Cc2ccc(Br)cc2)c1,-1,9448,12,9,-10,-13,2.7
CCN1C(=O)C2C(c3ccc(-c4ccc(C(C)=O)cc4)c(OC)c3)N[C@@](Cc3ccccc3)(C(=O)OC)C2C1=O (stereo partly specified),·,·,9,8,·,16,6.5
COc1cc2c(cc1OC)-c1cc(OCc3ccccc3Cl)nc(=O)n1CC2,-1,10447,7,4,1,-2,2.8
Clc1ccccc1-c1nnc2sc(-c3ccccn3)nn12,-8,21229*,0,-3,-24,-7,2.1
O=C(COC(=O)c1ccc(O)cc1)NCCc1c[nH]c2ccccc12,·,4516,8,5,-36,-2,-0.4
CSC(=Nc1ccccc1)C1=C(O)COC1=O,-5,3901,·,·,-2,5,4.3
COC(=O)c1ccccc1NC(=O)C1CCN(c2ncnc3c2nc2n3CCCCC2)CC1,-2,·,-2,5,-27,-4,-2.2
C=CCn1c(COc2ccccc2)nc2ccccc21,-6,3669,2,-3,-35,9,0.7
O=C1CCCc2c1nc(-c1ccc([N+](=O)[O-])cc1)n2O,-5,6141,-18,6,-16,1,-1.9
Cc1nn(C)c(C)c1/C=C(\C#N)C(N)=O,3,2740,-1,-1,-21,0,4.9
N=c1c2cn[nH]c2nc(SCC(=O)c2ccc(Br)cc2)n1-c1ccc(Br)cc1,-11,3200,·,·,-47,·,·
O=C(O)CC(NC(=O)c1cccc(F)c1)c1ccc(OC2CCCC2)cc1 (stereo unspecified),7,3599,-2,2,-11,-2,0.4

Fetched one by one from the entries so far (2):
structure,BJeLR lethal,Autofluor counter,Mtb hypoxia inh,Mtb hypoxia inh growth,PrP 5UTR inh,Sa ugtP lethal,Sa RN4220 lethal
Cc1nn(C)c(C)c1/C=C(\C#N)C(N)=O,3,2740,-1,-1,-21,0,4.9
C=CCn1c(COc2ccccc2)nc2ccccc21,-6,3669,2,-3,-35,9,0.7

More compounds.
structure,BJeLR lethal,Autofluor counter,Mtb hypoxia inh,Mtb hypoxia inh growth,PrP 5UTR inh,Sa ugtP lethal,Sa RN4220 lethal
Cc1ccc(S(=O)(=O)CNC(=S)c2cccc(Cl)c2)cc1,-5,2536,-7,3,-22,16,13
COC(=O)C1C(=O)CC(C)(O)C(C(=O)OC)C1C=Cc1ccccc1 (stereo unspecified),·,·,7,6,·,3,5.7
Cc1nn(Cc2ccc(Cl)c(Cl)c2)c(C)c1NC(=O)c1cc(-c2ccc3c(c2)OCO3)on1,1,19313*,9,10,-3,-21,-2.2
O=C(CON=Cc1ccc(OC(F)F)cc1)NC1CCCCC1,·,·,14,9,·,4,-0.3
CC(=NNc1ccc(C(F)(F)F)cc1[N+](=O)[O-])C(C)C,·,·,11,9,·,43,6.5
COC(=O)c1c(C)[nH]c(C(=O)C(C)OC(=O)C2CC(=O)N(c3ccc(C)cc3)C2)c1C (stereo unspecified),·,7838,7,3,-14,7,6.1
Cc1cccc(N2CCN(Cc3c(C)n(C)n(-c4ccccc4)c3=O)CC2)c1C,-6,5235,-5,14,-29,-3,-1.3
O=C(Oc1ccc(/C=N/Nc2ccccc2)cc1)c1ccccc1,-12,9538,·,·,-3,·,·
CC(=O)c1ccc(N2CCN(C(=O)/C=C/c3ccc(S(=O)(=O)NCc4ccco4)cc3)CC2)cc1,-4,4369,4,5,-16,5,1.9
CC(=O)Nn1cc2c(c1-c1ccccc1)c(=O)n(C)c(=O)n2C,8,24616*,0,2,-1,0,3.5
Cc1ccc(/C=C/C(=O)OCC(=O)NC(C)C)o1,-1,3495,3,4,-5,-2,2.7
O=C(CSc1nc2ccccc2c(=O)n1-c1ccc(F)cc1)Nc1ccc2c(c1)CCC2,1,2307,-3,0,-16,-6,-0.3
O=C(Nc1cccc(Cl)c1)C1C2C=CC3(O2)C1C(=O)N(CCN1CCCCC1)C3C(=O)NC1CCCCC1 (stereo unspecified),8,3656,1,-3,-14,-8,1.3
Cc1cc(N)c2ccccc2n1,-14,4225,3,8,-18,-7,3.3
COCCN1C(=O)N(c2cccc(OC)c2)C(=O)C1CC(=O)Nc1cccc(F)c1 (stereo unspecified),-3,3806,14,4,-11,13,3.5
CCCn1c(=S)[nH]c2sc3c(c2c1=O)CCCC3,-2,5590,6,-7,-3,-3,10
Cc1ccc(NC(=O)CC2Oc3ccc(C)cc3NC2=O)c(C)c1 (stereo unspecified),7,4249,-7,1,-14,9,6.6
CC(=NN=C(C)c1cccc(N)c1)c1cccc(N)c1,·,·,11,-10,·,2,7.5
CC1Sc2ccc(C(=O)O)cc2NC1=O (stereo unspecified),4,?,5,-10,-15,13,3.3
CCCOC(=O)c1cccc(NC(=O)COc2ccc([N+](=O)[O-])cc2)c1,11,2106,5,3,-1,0,-2.1
Cc1ccc(C(=O)N/N=C2\CC3CC=CC23)c(C)c1 (stereo unspecified),7,3065,·,·,-15,·,·
Cc1ccc2nc(C3CCN(C(=O)c4ccco4)CC3)[nH]c2c1,3,23117*,-5,2,-19,-3,-0.3
CCS(=O)(=O)N1CCN=C1SC(C)c1ccccc1 (stereo unspecified),5,5249,3,1,-16,7,3.3
CC(C)Nc1nc(NC2CCCC2)nc(N2CCOCC2)n1,·,?,-43,9,-16,-7,-3.9
O=C(CN1CCCCC1)Nc1ccccc1Oc1ccccc1,3,4251,13,5,1,9,6.0
O=C(c1cn(-c2ccccc2)nc1-c1cccs1)N1CCN(c2ccc(F)cc2)CC1,7,2864,·,·,-21,12,-3.3

Screening results (PubChem BioAssay)
